# Screens deposited in PubChem BioAssay by several laboratories.
# MT1-MMP reporter – MT1-MMP gene expression reporter suppression – cell-based, luciferase reporter, luminescence (AID 618); MT1-MMP promoter luciferase reporter cells, luminescence; calls from a first round at 10 µM; hits with a dose series show EC50 in µM; 87,000 tested, 0.62% active;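 active = over half of the reporter light lost at 10 µM or EC50 under 50 µM; inactive = the rest and hits that failed the dose series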;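 note: actives suppress MT1-MMP promoter-driven transcription so potencies describe inhibitors; HT1080 fibrosarcoma cells; overnight exposure; toxic or luciferase-blocking compounds were not removed from the actives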
# Hsc70 – small molecules displacing fluorescent ligand from Hsc70 – biochemical, fluorescence polarization, primary screen (AID 568). displacement, % at 20 µM, or IC50 in µM where a hit was titrated. Hsc70 fluorescence polarization, probe displacement; higher % means a stronger effect; strong numbers were not always called active. 83,000 tested, under 10 active;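 active = displacement above 50% without optical interference and an IC50 on retest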;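 note: ATPase domain with a fluorescein-tagged ATP probe; 0% = vehicle and 100% = excess ADP; read after one hour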
# WNV protease inh – WNV NS2B-NS3 proteinase inhibition. P06935. WNV NS2B-NS3 protease, fluorogenic substrate Ex360/Em465; hits give low values. z-score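 (tested at a level between 10 and 100 µM)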. 65,000 tested, 0.18% active. AID 577;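 active = z-score at -3 or under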;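 note: score is relative to mean and spread of the compound wells of a plate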
# Target sequence (P06935 1371-1501 limits assumed): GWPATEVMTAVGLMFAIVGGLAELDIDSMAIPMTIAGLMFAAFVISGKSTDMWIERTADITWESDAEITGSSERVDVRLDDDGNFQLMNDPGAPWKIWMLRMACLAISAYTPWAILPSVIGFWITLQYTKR
# Target sequence (P06935 1502-1679 limits assumed): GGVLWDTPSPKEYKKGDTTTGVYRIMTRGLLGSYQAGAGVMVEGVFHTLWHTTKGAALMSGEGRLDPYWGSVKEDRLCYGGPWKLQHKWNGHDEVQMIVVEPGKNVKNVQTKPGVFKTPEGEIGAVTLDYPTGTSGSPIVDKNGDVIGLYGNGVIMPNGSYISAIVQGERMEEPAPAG
# Active calls of the source: *; i = inactive; . = no result given; + = active, no number. This is a subset; the hit share may differ from the screen's.
SMILES | MT1-MMP reporter | Hsc70 | WNV protease inh
Cc1cccc(C)c1OCC(O)CNS(=O)(=O)c1ccccc1C(=O)N1CCOCC1 (stereo not given) | i | 9.2% | 0.14
O=C1CCC(=O)N1c1nc2nc(-c3ccccc3)cc(=O)n2[nH]1 | i | 6.3% | .
CC(OC(=O)c1cccs1)C(=O)NCc1ccco1 (stereo not given) | i | -14.7% | -0.85
COC(=O)CN1C2(C#N)CCCCC2CC2CCCCC21C#N (stereo not given) | i | 4.0% | -0.4
O=C(Nc1nc(COc2ccccc2)cs1)C1CCC1 | i | -1.6% | .
Cc1ccc(N2CCN(c3ccc(C)cc3)C2c2ccccn2)cc1 | i | -8.1% | -0.61
c1cc(C2OCCN2CC2COC3(CCCC3)O2)ccn1 (stereo not given) | i | 4.2% | -0.63
COc1ccc(C(CC(=O)O)NC(C)=O)cc1OC (stereo not given) | i | 5.7% | -1.05
CC1=CC(C)(C)N(S(=O)(=O)c2ccc(C)cc2)c2ccccc21 | + | 8.4% | .
Cc1nnc(NC(=O)CSc2cn(Cc3ccccc3)c3ccccc23)s1 | i | -3.9% | 2.08
COC(=O)CC1=C(C(=O)OC)C(c2ccncc2)C(C#N)=C(N)O1 (stereo not given) | i | 0.8% | -0.52
C=CCOc1ccc(Br)cc1/C=N/O | i | -0.1% | .
COCC(C)NC(=O)C1CC(c2cccc(Br)c2)=NO1 (stereo not given) | i | -1.1% | -0.87
CC(C)Nc1nc(NC(C)C)nc(N(C)C(N)=O)n1 | i | -0.6% | 1.33
O=C(c1ccc(F)cc1)c1cn[nH]c1-c1ccccc1O | i | 1.6% | -1.15
Cc1ccc(S(=O)(=O)n2nc(OC(=O)c3c(-c4ccccc4Cl)noc3C)cc2N)cc1 | i | -5.0% | -1.02
COc1ccc(C2OC(=O)CC2C(=O)NC(C)C)cc1 (stereo not given) | i | -0.3% | -0.03
CCC1(C)Cc2c(sc3[nH]c(=S)n(Cc4ccccc4)c(=O)c23)CO1 (stereo not given) | i | 0.3% | .
CCOc1ccc(N2C(=O)CC(NCCc3ccncc3)C2=O)cc1 (stereo not given) | i | -3.9% | 1.08
COC(=O)Cc1[nH]nc2c1C1(C(=O)N(Cc3ccc(Cl)cc3)c3ccccc31)C(C#N)=C(N)O2 (stereo not given) | i | 4.7% | -1.02
Cc1ccc(CC(NC(=O)c2ccccc2)C(=O)N2CCCC2C(=O)O)cc1 (stereo not given) | i | -1.6% | -0.07
CC(C)(Oc1ccc(Cl)cc1)C(=O)N1CCN(c2ccccn2)CC1 | i | -2.7% | -1.4
Cc1nnc(NC(=O)c2ccccc2C(=O)O)s1 | i | 0.3% | .
COc1ccc(NC(=O)CS(=O)CC(=O)Nc2cc(Cl)ccc2OC)cc1 (stereo not given) | i | 0.9% | -0.52
c1ccc(CSCc2cn3ccsc3n2)cc1 | i | 3.9% | -0.24

# Shown with each value named: part of the list above.
CCOc1ccc(N2C(=O)CC(NCCc3ccncc3)C2=O)cc1 (stereo not given)
  MT1-MMP reporter: i
  Hsc70: -3.9%
  WNV protease inh: 1.08
COC(=O)Cc1[nH]nc2c1C1(C(=O)N(Cc3ccc(Cl)cc3)c3ccccc31)C(C#N)=C(N)O2 (stereo not given)
  MT1-MMP reporter: i
  Hsc70: 4.7%
  WNV protease inh: -1.02

# Following part
SMILES | MT1-MMP reporter | Hsc70 | WNV protease inh
O=C(c1ccc(-c2ccccc2)cc1)N1CCN(C(=O)c2ccco2)CC1 | i | 1.3% | 0.27
CCCCN=Cc1sc2ccc(OCC)cc2c1O | i | 0.6% | .
Cc1ccc(N(CC(=O)Nc2ccccc2C(=O)N2CCOCC2)S(C)(=O)=O)cc1 | i | 3.1% | .
O=C(NCc1ccc2c(c1)OCO2)c1cccc2c1C(=O)N(C1CCCCC1)C2 | i | -7.0% | -0.35
CCCc1n[nH]c2c1C(=O)CC(C)(C)C2 | i | -10.5% | -0.86
Cn1c(C(=O)NCCN2CCOCC2)cc2sccc21 | i | -1.0% | -0.18
C=CCc1ccccc1OCC(O)CN1CCN(c2ccc(C)cc2)CC1 (stereo not given) | i | -3.1% | 1.8
O=C(COC(=O)C1COc2ccccc2O1)NC(=O)NC1CCCC1 (stereo not given) | i | 4.2% | -0.78
O=C1CCC([N+](=O)[O-])C(c2ccc(Cl)cc2)N1 (stereo not given) | i | 0.8% | .
COc1ccccc1CNC(=O)CN(c1ccc(C)cc1)S(=O)(=O)c1c(C)n[nH]c1C | i | -2.8% | 0.65
CS(=O)(=O)N1CCCC(C(=O)NCCN2CCC(Cc3ccccc3)CC2)C1 (stereo not given) | i | -1.3% | 1.02
Cc1ccc(NC(=O)CC2C(=O)NC3CCCCC3N2C(=O)c2ccc(F)cc2)cc1C (stereo not given) | i | -1.7% | -0.22
CCOc1ccc(-n2c(SCC(=O)Nc3ccc4c(c3)OCO4)nc3ccccc3c2=O)cc1 | i | 2.0% | .
O=C(Cn1cnc2c(cnn2-c2ccc(Cl)cc2)c1=O)NC1CCCCC1 | i | -4.7% | 0.86
CCOC(=O)c1c(C)oc2ccc(OC(=O)N3CCOCC3)cc12 | i | -2.1% | 0.13
CCOC(=O)C(NC(=O)Cc1ccccc1)(Nc1cc(C)on1)C(F)(F)F (stereo not given) | i | -4.7% | .
COc1ccc(N2C(=S)N(C(=O)c3ccccc3)C(=Nc3ccccc3)C2=Nc2ccccc2)cc1 | i | 2.0% | .
COc1ccc2c(c1OC)C(=O)N(c1ccc3c(c1)CCC3)C2=O | i | 6.0% | 0.03
Cc1ccc(OCC(=O)NCCN2CCOCC2)cc1C | i | -2.7% | .
COc1ccc(NC(=O)N2CCCC(c3nc(-c4ccc(C(C)C)cc4)no3)C2)cc1 (stereo not given) | i | 0.4% | 0.47
CCOc1ccccc1NC(=O)C1CCCCN1S(=O)(=O)c1ccc(F)cc1 (stereo not given) | i | -0.4% | .
OC(COC1CCCCC1)CN1CCN(c2ccccc2)CC1 (stereo not given) | i | 4.1% | -0.21
COc1ccc(NC(=O)CSc2nc(O)c(Cc3ccccc3)c(=O)[nH]2)cc1 | i | 0.4% | 0.82
Cn1c(N2CCC(C(N)=O)CC2)nc2c1c(=O)n(Cc1ccc(Cl)cc1)c(=O)n2C | i | -3.9% | 0.31
COc1ccc(NC(=O)C(CC(C)C)NC(=O)c2ccccc2C)cn1 (stereo not given) | i | 10.4% | -0.09
CCCCC(NC(C)=O)c1nc2ccccc2[nH]1 (stereo not given) | i | 0.7% | 0.59
O=C(CSc1nc2ccccc2c(=O)n1-c1ccccc1)N1CCCC1 | i | 2.2% | .
Cc1ccc(OCCNC(=O)c2ccccc2N)cc1 | i | -2.9% | 1.33
COc1ccc2[nH]c(=O)c(CN(CCO)C(=O)c3ccccc3F)cc2c1 | i | -0.7% | 0.96
CCN1CCN(C(c2cccs2)C(C)NC(=O)CC(C)C)CC1 (stereo not given) | i | 3.6% | 0.92
O=C(Nc1ccc(F)cc1F)c1cc2n(n1)C(C(F)(F)F)C1CCCCC1N2 (stereo not given) | i | -6.4% | -0.05
Cc1nn2c(C)nc3sc4c(c3c2nc1=O)CC(C)(C)OC4 | i | 3.5% | .
CC(=O)COC(=O)CCc1nc2ccccc2[nH]c1=O | i | 4.1% | .
COc1ccc(-c2c(C#N)c(N)nc3c2c(=O)n(C)c(=O)n3C)cc1 | i | 2.4% | .
Cc1sc(C(=O)NCc2cccnc2)c2nc(C)n(CC(=O)NCc3cccnc3)c(=O)c12 | i | -0.6% | -0.31
COc1ccc(-c2cn[nH]c2N)c(OC)c1 | i | -1.0% | 0.00334
COC(=O)CCCCCc1ccc(C(C)=O)s1 | i | 7.0% | -0.8
CCOC(=O)c1[nH]c(C)c(/C(O)=C2\C(=O)C(=O)N(CCN(C)C)C2c2ccc(C)o2)c1C (stereo not given) | i | -0.2% | -0.43
CC(C)C[C@H](NC(=O)NCc1ccccc1Cl)C(=O)O | i | -9.7% | 0.84
CCCn1nc(NC(=O)C2CCCO2)c2cc3cc(C)ccc3nc21 (stereo not given) | i | -1.1% | .
CSCC[C@H](NC(=O)NCc1ccccc1F)C(=O)O | i | -2.0% | -0.96
Fc1ccc(CSc2ncnc3nc[nH]c23)cc1 | i | 1.6% | 0.03
C/C(=C/c1oc2ccc(O)cc2c1[N+](=O)[O-])N(C)C | i | -4.2% | .
CCOCCCNC(=O)c1ccccc1SC | i | -3.7% | 0.28
CC(C)c1cc(NCCCN2CCOCC2)n2c(nc3ccccc32)c1C#N | i | -0.2% | -0.16
CCOc1ccc(CCNC(=O)CN2CCN(Cc3ccccc3C)C2=O)cc1OCC | i | -3.3% | -1.04
CCOC(=O)C1=C(N)Oc2cc(C)oc(=O)c2C1c1cccnc1 (stereo not given) | i | -0.2% | 1.11
COc1cc(S(=O)(=O)N(Cc2ccc(C)cc2)C2CCCCC2)ccc1-n1cnnn1 | i | 1.8% | -0.98
CC(C)(C)n1nnnc1C(c1cccs1)N1CCCc2ccccc21 (stereo not given) | i | -1.9% | 1.72
CCOC(=O)c1sc2nc(CC(=O)OC)nc(NCC(=O)OC)c2c1C | i | -2.1% | 1.29

# The listing continues.
SMILES | MT1-MMP reporter | Hsc70 | WNV protease inh
CC(C)NC(=O)c1nc2ccccc2s1 | i | -1.7% | 0.55
CCOc1ccc(OCCCN(C)C)cc1 | i | 1.3% | .
O=C1c2ccccc2C(Nc2ccc3c(c2)OCCO3)N1c1ccccn1 (stereo not given) | i | -1.0% | -0.62
CCCCOc1ccc(CSC(=N)N)cc1[N+](=O)[O-] | i | 3.7% | .
CCCn1c(-c2nonc2N)nc2ccccc21 | i | -4.7% | .
Cc1cccc(N2C(=O)CCC2=O)c1 | i | 3.6% | .
CCCCOc1ccc(CSC(CC(=O)O)C(=O)O)cc1 (stereo not given) | i | 0.5% | -0.21
COCCN(CCOC)Cc1c(O)ccc2c3c(c(=O)oc12)CCC3 | i | 10.6% | 9.73
CCCCOc1ccc(S(=O)(=O)N2CCCCCC2)cc1 | i | 3.9% | 0.32
COC(=O)c1cccc(N2C(=O)C3CC=CCC3C2=O)c1 (stereo not given) | i | -7.1% | .
CCOC(=O)c1[nH]c(C)c(/C(O)=C2\C(=O)C(=O)N(CCCn3ccnc3)C2c2ccncc2)c1C (stereo not given) | i | 5.6% | -0.95
O=C(O)C1CC(=O)N(c2ccc(OCc3c(F)cccc3Cl)cc2)C1 (stereo not given) | i | -1.6% | -0.38
CCOC(=O)c1sc(=S)n(-c2ccccc2OC)c1N | i | 4.2% | -1.82
Cc1nc2ccccn2c1/C(O)=C1\C(=O)C(=O)N(CCCn2ccnc2)C1c1ccncc1 (stereo not given) | i | 0.1% | 1.96
Cc1nnc(NC(=O)c2ccccc2Br)s1 | i | -5.6% | 3.27
CCOC(=O)c1sc(Nc2ccccc2)nc1C | i | 3.6% | .
O=C1CC(NCc2ccc3c(c2)OCO3)C(=O)N1Cc1ccc2c(c1)OCO2 (stereo not given) | i | -7.1% | 0.3
CCOc1ccccc1-c1nc(C(N)=O)c2[nH]c(=O)n(-c3ccc(F)cc3)c2n1 | i | -1.2% | 3.24
Cc1cccn2cc(CNC(=O)c3ccco3)nc12 | i | 1.9% | 0.45
CCOC(=O)C1=C(C)N(CCO)C(=O)NC1c1ccccc1 (stereo not given) | i | 0.0% | 2.14
C=CCON1C(=O)c2ccccc2C1=O | i | 7.4% | .
CCOC(=O)Nc1ccc2ncn(C)c(=O)c2c1 | i | 1.4% | 1.95
CC12CCC(C(=O)N(CSC(=S)N/N=C\c3ccccc3Cl)C1=O)C2(C)C (stereo not given) | i | -3.1% | .
C=CCn1c2ccccc2c2nnc(SCc3ccc4nonc4c3)nc21 | i | -1.6% | 0.85
O=C(c1cc2ccccc2oc1=O)N(Cc1cccs1)Cc1cccs1 | i | 0.5% | .
O=C(c1ccc(Cl)cc1)C1CCN(C(=O)N2CCOCC2)CC1 | i | -3.2% | 0.00813
C=CCNC(=O)C1CC(=O)N(c2ccc(OCC(=O)Nc3ccc(OC)cc3)cc2)C1 (stereo not given) | i | 2.2% | 0.28
CCCCCOc1ccccc1C(=O)NCCC(=O)O | i | -1.1% | .
c1csc(-c2cnc3n2CCCC3)c1 | i | -1.5% | -0.38

# Among those listed so far, these contain a thiophene ring, fused or not.
SMILES | MT1-MMP reporter | Hsc70 | WNV protease inh
CC(OC(=O)c1cccs1)C(=O)NCc1ccco1 (stereo not given) | i | -14.7% | -0.85
CCC1(C)Cc2c(sc3[nH]c(=S)n(Cc4ccccc4)c(=O)c23)CO1 (stereo not given) | i | 0.3% | .
CCCCN=Cc1sc2ccc(OCC)cc2c1O | i | 0.6% | .
Cn1c(C(=O)NCCN2CCOCC2)cc2sccc21 | i | -1.0% | -0.18
CCN1CCN(C(c2cccs2)C(C)NC(=O)CC(C)C)CC1 (stereo not given) | i | 3.6% | 0.92
Cc1nn2c(C)nc3sc4c(c3c2nc1=O)CC(C)(C)OC4 | i | 3.5% | .
Cc1sc(C(=O)NCc2cccnc2)c2nc(C)n(CC(=O)NCc3cccnc3)c(=O)c12 | i | -0.6% | -0.31
COC(=O)CCCCCc1ccc(C(C)=O)s1 | i | 7.0% | -0.8
CC(C)(C)n1nnnc1C(c1cccs1)N1CCCc2ccccc21 (stereo not given) | i | -1.9% | 1.72
CCOC(=O)c1sc2nc(CC(=O)OC)nc(NCC(=O)OC)c2c1C | i | -2.1% | 1.29
O=C(c1cc2ccccc2oc1=O)N(Cc1cccs1)Cc1cccs1 | i | 0.5% | .
c1csc(-c2cnc3n2CCCC3)c1 | i | -1.5% | -0.38
